# ugtP null kill: kills S. aureus RN4220 lacking UgtP; growth inhibition, % (no concentration beside the values); S. aureus RN4220 ugtP deletion, OD600 growth, 16 h; some inactives read as strong as hits; 330,000 tested, 0.54% active;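 active = z-score under -3 and OD600 up to 0.15 on both plates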;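 note: plate controls were untreated wells for no effect and antibiotic for full effect; wells of about 80 µL received 100 nL stock; the first replicate is given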
# PrP UTR inh: inhibition of PrP 5' UTR reporter expression | inhibition, % (concentration not given with the values) | AID 488862 | 340,000 tested, 0.35% active | cell-based PrP 5' UTR mRNA reporter, plate reader;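 active = every replicate at 50% or more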;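 note: 0 = median of the neutral control wells; tested in H4 reporter cells; numbers are from one replicate; inactives centre near -14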
# Mtb hypoxia inh: inhibitors of hypoxia-regulated fluorescent reporter in Mycobacterium tuberculosis; M. tuberculosis hypoxia-regulated fluorescent reporter, fluorescence; fluorescence inhibition, % (test concentration not listed); 300,000 tested, 0.1% active; AID 1159583;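 active = 35 to 45% if threefold the growth effect, above 45% if 1.5-fold the growth effect; inactive = the rest, general growth blockers included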;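 note: wells of about 50 µL received 100 nL stock; 0% = vehicle wells and 100% = reference inhibitor wells; whole bacteria with a GFP reporter of the hypoxia response; strong numbers were not always called active; many hits fall short of the cut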
# RN4220 kill: S. aureus RN4220 growth inhibition | 330,000 tested, 0.33% active | AID 1259311 | inhibition, % (concentration not given with the values) | OD600, 16 h;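 active = z-score of -3 or lower and OD600 up to 0.18 on both plates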;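 note: plate controls were untreated cells for no effect and reference antibiotic for full effect; stock transfer was 100 nL into about 80 µL; one replicate is shown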
# Bead autofluor: counter-screen for toxin protease inhibitors: compound fluorescence; compound autofluorescence counterscreen, microsphere flow cytometry; hits give high values; 360,000 tested, 3.1% active; fluorescence intensity (test concentration not listed);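 active = at least 3 SD above the mean of all compounds, about 16000 in these data; inconclusive = too few beads counted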;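 note: 100 nL of 1 mM stock went into each well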
# BJeLR lethal: kills HRASV12-expressing BJeLR cells; BJeLR (HRASV12) viability, CellTiter-Glo ATP luminescence, 48 h; reference of the scale not given here; inhibition, % (test concentration not listed); 300,000 tested, 0.17% active; AID 1554;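 active = replicate mean above 50%; inconclusive = above 50% but judged a plate artefact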;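 note: 50 nL library stock added to about 25 µL; numbers are from one replicate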
# Mtb hypoxia inh growth: second read-out of Mtb hypoxia inh, no call of its own (marks repeat the call); growth inhibition, %; measured here: M. tuberculosis growth (absorbance);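 0% = vehicle and 100% = reference antibiotic; read after six days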
# * hit, by the source's call; u = inconclusive; x = not tested or not shown.
SMILES,ugtP null kill,PrP UTR inh,Mtb hypoxia inh,Mtb hypoxia inh growth,RN4220 kill,Bead autofluor,BJeLR lethal
Cc1cc(C(=O)Nc2ccc3ccccc3c2)c(C)o1,11,-86,4,1,-4.7,4663,-12
Cn1cnc([N+](=O)[O-])c1Sc1ccccc1,-6,-15,14,11,1.3,10600,1
COc1cccc(COC(=O)C2CCN(S(=O)(=O)c3ccc(C)cc3)CC2)c1OC,5,-20,11,-1,1.1,5078,-2
Cc1ccc(C)c(OCC(=O)NN=Cc2c(C)nn(-c3ccccc3)c2Cl)c1,-15,x,8,-6,-4.9,x,x
CC(C)(C)c1cnnn1-c1ccc([N+](=O)[O-])cc1,-2,-15,7,6,6.4,4702,-6
COc1ccc2c(c1)O/C(=C\c1ccccc1O)C2=O,-6,x,12,6,4.8,6830,-10
CC(NC(=O)c1ccc(-c2cc(C(F)(F)F)ccc2Cl)o1)c1ccccc1 (stereo not drawn),4,-22,7,6,3.0,20639*,3
O=C(NCCc1cccnc1)C1CCC(=O)N(CCc2cccc(F)c2)C1 (stereo not drawn),-2,4,-4,-2,2.3,4221,-3
Cc1cccc(C(=O)NCCc2n[nH]c(=S)n2C)c1,-2,-28,1,4,5.0,7462,3
N#C/C(=C\c1ccccc1)C(=O)N1CCC(C(N)=O)CC1,7,-14,3,-6,0.4,3848,-4
Cc1ccc(NC(=O)C2CCN(S(=O)(=O)c3ccc4c(c3)OCCCO4)CC2)nc1,4,-17,10,-2,2.6,5755,3
COc1ccc(C=NNC(=O)c2ccoc2C)cc1O,-3,x,1,2,-0.5,x,x
CC(CCc1ccc(O)cc1)NC(c1ccccc1)c1ccc(Cl)cc1 (stereo not drawn),9,-14,12,6,1.3,4014,2
COCCCNC(=S)NN=Cc1ccc(O)cc1O,-3,x,7,17,1.9,x,x
Cn1c(SCC(=O)NN=Cc2ccc(O)c(O)c2)nc2ccccc21,2,x,12,11,1.8,x,x
O=S(=O)(NC1CC1)c1ccc(Cl)cc1F,2,-16,11,3,3.3,3823,1
Cn1c(NC(=O)c2ccc(Cl)s2)cc(=O)n(C)c1=O,-1,-43,-4,9,1.8,10627,-8
CCCCC(CC)Cn1c(N)c(C#N)c2nc3ccccc3nc21 (stereo not drawn),-33,-26,9,3,10,10426,-8
CCOC(=O)/C=C1/SCC(=O)N1Cc1ccc(Br)cc1,17,-4,-2,-6,-1.3,3412,x
CC1CCC/C(=C(\C#N)c2nc(-c3cc4ccccc4oc3=O)cs2)C1 (stereo not drawn),-4,-48,15,10,9.0,2198,7
CCOC(=O)N1CCC(Nc2ncnc3c2cnn3-c2ccc(C)cc2C)CC1,3,-9,4,1,0.1,5937,14
CCCCC/C(C=NNc1ccc(S(=O)(=O)N2CCOCC2)cc1[N+](=O)[O-])=C\c1ccccc1,-17,x,8,1,4.3,x,x
COc1ccc(N2C(=NC(=O)CCCc3ccccc3)SC3CS(=O)(=O)CC32)cc1 (stereo not drawn),-1,-26,-11,-9,-1.3,u,7
CC1CN(C)C(C)CC1=NOc1ccccc1[N+](=O)[O-] (stereo not drawn),-14,x,8,8,0.0,x,x
Nn1c(SCC(=O)NCCN2C(=O)CSC2=O)nnc1-c1ccc(OC(F)F)cc1,5,-13,1,9,-0.2,6050,2
C=CCC(NCc1ccccc1)c1ccco1 (stereo not drawn),7,-18,6,-5,1.2,8397,7
NNC(=O)c1cc(O)c(O)c(O)c1,6,-2,4,3,6.5,4792,-7
CC(C)C=NNc1nc2c(c(=O)n(C)c(=O)n2C)n1C,1,x,2,-2,1.0,x,x
CCOC(=O)CSc1n[nH]c(NS(=O)(=O)c2ccccc2C(F)(F)F)n1,-3,-29,1,7,1.6,3686,2
O=C(CC1C(=O)NCCN1Cc1ccccc1F)NC1CCCCCC1 (stereo not drawn),x,-18,x,x,x,4552,6
Cc1ccc2oc(C(=O)Nc3ccc(S(=O)(=O)Nc4onc(C)c4C)cc3)c(C)c2c1,5,-9,-2,4,1.8,5669,-8
COc1ccc(CNC(=O)COC(=O)c2ccc(F)c(S(=O)(=O)N3CCOCC3)c2)cc1,1,-25,13,4,0.9,4400,x
O=C(O)c1ccc2c(c1)N(Cc1ccc(F)cc1)C(=O)c1ccccc1S2,9,-35,-1,12,16,4195,-13
COC(=O)CN(n1cnnc1)S(=O)(=O)c1ccccc1,-6,-11,1,13,2.6,22038*,-6
CCOC(=O)N1CCN(C(=O)CN2C(=O)NC(c3ccccc3)(c3ccccc3)C2=O)CC1,1,-17,0,7,-0.3,5154,0
Cc1c(-c2ccccc2)sc(N)c1C(=O)N1CCOCC1,-4,-11,x,x,-3.2,3682,0
CCN(CC)S(=O)(=O)c1ccc2oc(C(=O)NC3CC3)c(C)c2c1,7,-16,7,10,5.3,3774,0
COCCN(CCNC(=O)c1ccc(NC2=NC3CS(=O)(=O)CC3S2)cc1)Cc1ccco1 (stereo not drawn),3,-15,13,8,-5.3,4719,1
Cn1nc(-c2ccc(OCC(N)=O)cc2)c2ccccc2c1=O,1,-17,25,16,4.5,5948,-3
N#C/C(=C\c1ccc(F)cc1)c1nc(-c2ccco2)cs1,-5,-36,1,-18,1.2,2882,-6
CN1CC2C(c3ccc(C(F)(F)F)cc3)C3(c4ccc(C#N)cc4)CC2(C3)C1c1ccccc1 (stereo not drawn),12,x,12,5,-2.6,x,x
CC[C@]12c3[nH]c4ccc(Cl)cc4c3CCN1C(=O)[C@@H](CC(=O)NC(C)(C)C)C[C@@H]2C(=O)N1CCN(C(=O)c2ccco2)CC1,4,-12,1,5,4.4,3012,x
Fc1ccc(-c2ccc(Nc3cccc(F)c3)nn2)cc1,-5,-35,13,3,-1.0,4631,2
CCOC(=O)CC1(CC(=O)OCC)NC(=O)c2c(C)sc(C(=O)OCC)c2N1,-7,-42,14,6,9.5,2454,-6
Cc1cc(C)cc(-n2cc[nH]c2=S)c1,6,-9,1,5,-0.1,2445,-1
O=C(COC(=O)CCc1nc2ccccc2c(=O)[nH]1)Nc1ccc(N2CCOCC2)cc1,12,-20,7,15,2.5,4111,-7
COc1cccc(CNC(=O)COC(=O)CN2C(=O)NC3(CCCCC3C)C2=O)c1 (stereo not drawn),0,-2,-6,2,0.8,u,x
COC(C/C=C\[C@H](O)COCc1ccccc1)OC,x,-9,x,x,x,3755,-6
COc1ccc(-c2nc(N)ncc2-c2ccccc2)c(O)c1,-2,-13,-3,1,-2.1,2970,5
CCN(C(=S)NC(=O)C1CCCC1)C1CCCCC1,6,0,-1,8,7.4,4200,3

# Some of the entries above in a different format:
Cc1ccc2oc(C(=O)Nc3ccc(S(=O)(=O)Nc4onc(C)c4C)cc3)c(C)c2c1
- ugtP null kill: 5
- PrP UTR inh: -9
- Mtb hypoxia inh: -2
- Mtb hypoxia inh growth: 4
- RN4220 kill: 1.8
- Bead autofluor: 5669
- BJeLR lethal: -8

COc1ccc(CNC(=O)COC(=O)c2ccc(F)c(S(=O)(=O)N3CCOCC3)c2)cc1
- ugtP null kill: 1
- PrP UTR inh: -25
- Mtb hypoxia inh: 13
- Mtb hypoxia inh growth: 4
- RN4220 kill: 0.9
- Bead autofluor: 4400
- BJeLR lethal: x

O=C(O)c1ccc2c(c1)N(Cc1ccc(F)cc1)C(=O)c1ccccc1S2
- ugtP null kill: 9
- PrP UTR inh: -35
- Mtb hypoxia inh: -1
- Mtb hypoxia inh growth: 12
- RN4220 kill: 16
- Bead autofluor: 4195
- BJeLR lethal: -13

COC(=O)CN(n1cnnc1)S(=O)(=O)c1ccccc1
- ugtP null kill: -6
- PrP UTR inh: -11
- Mtb hypoxia inh: 1
- Mtb hypoxia inh growth: 13
- RN4220 kill: 2.6
- Bead autofluor: 22038*
- BJeLR lethal: -6

# (continued)
SMILES,ugtP null kill,PrP UTR inh,Mtb hypoxia inh,Mtb hypoxia inh growth,RN4220 kill,Bead autofluor,BJeLR lethal
Cc1ccc(/C=N/N=C2/NC(=O)C(CC(=O)Nc3ccccc3)S2)o1 (stereo not drawn),x,-21,x,x,x,2204,3
CCCCNC(=O)c1nn2cc(Br)cnc2c1Br,-3,x,11,6,6.3,x,4
Cc1nn(-c2ccccc2)c(C)c1/C=N/N1CCN(c2ccccc2)CC1,x,-32,x,x,x,20444*,-3
O=C(Nc1ccc(Cl)c(-c2nc3ccccc3[nH]2)c1)c1ccc2c(c1)OCO2,-15,-118,13,5,7.0,10425,1
CC(=O)Nc1cccc(C(=O)OCN2C(=O)c3ccccc3C2=O)c1,0,-11,6,-4,-1.0,5671,6
c1ccc2c(c1)ccc1nnc(SCc3ccc4c(c3)OCCO4)n12,-10,-39,-3,3,0.9,5826,6
Cc1cc(OC(=O)CCCNC(=O)OC(C)(C)C)c2c3c(c(=O)oc2c1)CCC3,-4,-50,14,11,16,9254,1
COc1ccc(CCNC(=O)CNS(=O)(=O)c2ccc(F)c(Cl)c2)cc1OC,6,-34,21,11,3.1,3499,-6
Cc1cc(C(=O)NN=Cc2cc(Br)cc(Br)c2OC(=O)c2cccc(F)c2)n[nH]1,1,x,5,5,-2.1,x,x
CCOC(=O)CNC(=O)N1CCCC(CCC(=O)NCc2ccc(F)c(F)c2)C1 (stereo not drawn),-2,-4,3,1,4.6,2648,11
Cc1nn(Cc2ccc(Cl)cc2)c(Cl)c1/C=N/NC(=O)c1cccnc1,x,-12,x,x,x,3071,1
O=C(Nc1ccc(NC(=O)c2cccs2)cc1)c1ccco1,-4,-83,x,x,2.1,4830,5
CCC(=O)NC(c1cccc([N+](=O)[O-])c1)c1c(OC(C)=O)ccc2ccccc12 (stereo not drawn),-2,-14,5,8,-13,2929,-9
CC(C(=O)NCc1ccccc1Cl)N1C(=O)c2ccccc2C1=O (stereo not drawn),9,-8,-1,-7,6.6,5715,-4
COc1ccc(S(=O)(=O)N2CCCC(C(=O)NCc3ccccc3)C2)cc1 (stereo not drawn),3,-1,-9,4,-2.5,3458,-1
COc1ccccc1Oc1ccc(S(=O)(=O)N2CCCCC2C)cc1 (stereo not drawn),9,-1,-1,-7,6.0,3157,10
COc1ccc(-c2csc(Cc3nc(O)cs3)n2)cc1,-11,-70,21,19,14,2154,6
CCC(=O)Nc1ccc(C(=O)CN2C(=O)NC3(CCCCCC3)C2=O)cc1,0,-14,-2,3,-0.4,u,x
COc1cccc(-c2nc(Oc3cccc(C)c3C)c3ccccc3n2)c1O,2,-5,1,5,3.5,2730,3
CCCCn1c(N)c(N(CC(C)C)C(=O)c2ccc(S(=O)(=O)N3CCCCCC3)cc2)c(=O)[nH]c1=O,x,-10,x,x,x,5721,-2
CN(C)C1(CN=Cc2cc(Cl)cc([N+](=O)[O-])c2O)CCCCC1,8,-18,12,9,6.4,3284,-6
COc1ccc(CCNC(=O)c2ccc(NC(=O)CC3SC(N4CCCC4)=NC3=O)cc2)cc1 (stereo not drawn),4,-9,9,1,3.8,5729,9
Cc1cc(NC(=O)CN2CC(C)OC(C)C2)n(-c2nc3ccccc3s2)n1 (stereo not drawn),5,-22,x,x,0.1,3072,6
CCCCn1c(N)c(N(CC(C)C)C(=O)C2CCN(S(=O)(=O)c3ccc(C)cc3C)CC2)c(=O)[nH]c1=O,3,-16,4,1,2.3,x,4
CC(=O)c1ccc(NC(=O)CN2C(=O)/C(=C/C(C)=C/c3ccccc3)SC2=S)cc1,3,-33,6,10,9.8,2472,x
COc1cccc(NC(=O)CN(C)C(=O)c2cc(C)oc2C)c1,5,-34,11,10,0.6,3489,x
Cc1ccccc1C(=O)Nc1cccc(C#N)c1,0,-13,-2,12,0.7,10202,-3
COC(CNC(=O)c1ccc2c(c1)ncn2-c1ccc(F)cc1F)OC,7,-24,3,-1,4.9,2166,7
COCCCNC(=O)c1sc2ncn(CC(=O)Nc3ccc(C)c(Cl)c3)c(=O)c2c1C,3,-21,10,4,-9.7,2578,-5
Clc1ccc(SCCOCCN2CCCCC2)cc1,1,-14,5,1,10,6752,-5
COC(=O)c1ccccc1NC(=O)C1CC(=O)N(C2CCCCC2)C1 (stereo not drawn),-2,5,-3,8,-1.6,11157,-1
Cc1ccc(N2CC(C(=O)N3CCCCC3)CC2=O)cc1C (stereo not drawn),2,4,0,-1,1.0,u,6
NC(N)=NS(=O)(=O)c1ccc(N/C=C\C(=O)c2ccncc2)cc1,14,-10,11,-10,2.1,4476,4
Cc1sc2ncn(CC(=O)NCC(=O)N3CCC4(CC3)OCCO4)c(=O)c2c1C,-3,-19,x,x,0.9,5092,0
O=C1CC(c2ccncc2)c2cc3c(cc2N1)OCCO3 (stereo not drawn),2,-5,x,x,4.2,4163,3
